Screening results: PubChem, several laboratories
ugtP null kill = growth inhibition of S. aureus ugtP deletion strain; S. aureus RN4220 ugtP deletion, OD600 growth, 16 h; some inactives read as strong as hits; 0.54% of 330,000 active; growth inhibition, % (no concentration beside the values);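 active = z-score under -3 and OD600 up to 0.15 on both plates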;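 note: plate controls were untreated wells for no effect and antibiotic for full effect; wells of about 80 µL received 100 nL stock; the first replicate is given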
PrP 5UTR inh = suppresses PrP 5' UTR mRNA reporter expression | cell-based PrP 5' UTR mRNA reporter, plate reader | inhibition, % (concentration not given with the values) | 0.35% of 340,000 active;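 active = every replicate at 50% or more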;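 note: 0 = median of the neutral control wells; tested in H4 reporter cells; numbers are from one replicate; inactives centre near -14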
Mtb hypoxia inh = reduces hypoxia-regulated biosensor signal in M. tuberculosis. 0.1% of 300,000 active. fluorescence inhibition, % (test concentration not listed). M. tuberculosis hypoxia-regulated fluorescent reporter, fluorescence;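 active = 35 to 45% if threefold the growth effect, above 45% if 1.5-fold the growth effect; inactive = the rest, general growth blockers included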;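 note: wells of about 50 µL received 100 nL stock; 0% = vehicle wells and 100% = reference inhibitor wells; whole bacteria with a GFP reporter of the hypoxia response; strong numbers were not always called active; many hits fall short of the cut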
RN4220 kill = kills Staphylococcus aureus RN4220 | S. aureus RN4220 growth, OD600, 16 h | inhibition, % (test concentration not listed) | 0.33% of 330,000 active;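 active = z-score of -3 or lower and OD600 up to 0.18 on both plates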;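 note: plate controls were untreated cells for no effect and reference antibiotic for full effect; stock transfer was 100 nL into about 80 µL; one replicate is shown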
Bead autofluor = compound fluorescence in toxin protease inhibitor counterscreen | compound autofluorescence counterscreen, microsphere flow cytometry; stronger effect = higher value | fluorescence intensity (concentration not given with the values) | 3.1% of 360,000 active;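 active = at least 3 SD above the mean of all compounds, about 16000 in these data; inconclusive = too few beads counted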;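 note: 100 nL of 1 mM stock went into each well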
BJeLR viability = kills HRASV12-expressing BJeLR cells; 0.17% of 300,000 active; inhibition, % (concentration not given with the values); BJeLR (HRASV12) viability, CellTiter-Glo ATP luminescence, 48 h; reference of the scale not given here; AID 1554;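 active = replicate mean above 50%; inconclusive = above 50% but judged a plate artefact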;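 note: 50 nL library stock added to about 25 µL; numbers are from one replicate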
Mtb hypoxia inh growth = second read-out of Mtb hypoxia inh, no call of its own (marks repeat the call); growth inhibition, %; measured here: M. tuberculosis growth (absorbance);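 0% = vehicle and 100% = reference antibiotic; read after six days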
* hit, by the source's call; ? = inconclusive; / = not tested or not shown.

cpd	SMILES	Bead autofluor	Mtb hypoxia inh	BJeLR viability	PrP 5UTR inh	ugtP null kill	RN4220 kill	Mtb hypoxia inh growth
1	COC(=O)C1C(=O)c2c([nH]c(C(=O)OC3CCCCC3)c2C)CC1C (stereo not given)	5382	/	1.4	-80.1	-4.6	0.8	/
2	O=C(Nc1ccn(Cc2c(F)c(F)c(F)c(F)c2F)n1)c1cccc(Cn2cc([N+](=O)[O-])cn2)c1	7985	4.9	0.9	-0.6	7.1	1.8	0.5
3	CCC(=O)c1ccc(OCC(=O)N2CCN(S(=O)(=O)c3ccc(Cl)s3)CC2)cc1	3451	-6.1	/	-27.3	-2.8	-0.6	-2.3
4	CCN1CCN(c2sc(S(C)(=O)=O)nc2S(=O)(=O)c2ccc(Cl)cc2)CC1	5504	4.1	2.3	4.9	2.7	-0.4	10.8
5	CC1=CC(=O)C(C(C)C)=CC1=NOC(=O)c1cccc2nc(C)oc12	/	2.1	/	/	4.7	11.1	4.2
6	COc1ccc(F)cc1C(=O)C1CCCN(C(=O)c2ocnc2C)C1 (stereo not given)	4433	12.0	-8.4	-32.2	2.0	0.4	-2.2
7	CCOc1ccc(C2NC(=O)C(C#N)=C(S)N2c2ccc(OC)cc2)cc1OC (stereo not given)	4671	/	1.7	-5.0	8.0	1.0	/
8	Cc1cc(C)nc(N=C(N)Nc2ccc(C)c([N+](=O)[O-])c2)n1	/	-3.6	/	/	-0.3	2.9	4.5
9	COc1ccc2c(c1)OCC1C2N2C(=O)c3cc(Cl)ccc3NC(=O)[C@@]2(C)C1c1ccccc1 (stereo not given in full)	/	-8.9	/	/	-25.2	0.9	5.4
10	O=C(CNC1CCCCC1)NN=C(c1ccccc1)c1ccccc1	4316	15.3	-15.8	-17.2	2.8	6.0	14.7
11	COC(=O)c1[nH]c2c(c1C)C(=O)CC(c1ccc(C)cc1)C2 (stereo not given)	2930	/	2.8	-22.7	-2.1	1.9	/
12	O=C(O)COc1c(F)c(F)c(C(F)(F)F)c(F)c1F	?	-3.1	-5.1	-16.9	-8.2	6.5	10.4
13	Cc1ccc(C)c(-n2cc(CN3CCNC(=O)CC3)c(-c3ccccc3)n2)c1	3505	-6.0	6.7	-18.7	-3.4	-5.9	-2.5
14	O=C(O)CCCC(=O)Nc1ccc(OCc2nc3ccccc3s2)cc1	3934	-0.1	8.6	-25.6	1.4	4.8	1.0
15	CCOc1ccc(C2CC(=O)n3nc(C45CC6CC(CC(C6)C4)C5)nc3S2)cc1OC (stereo not given)	4271	/	-6.2	-19.4	6.8	0.0	/
16	CCCCn1c(N)c(N(CCOC)C(=O)c2ccc(Cl)c(S(=O)(=O)N3CCCC3)c2)c(=O)[nH]c1=O	5161	4.0	-0.5	-10.0	10.6	4.7	2.0
17	O=C(c1ccccc1)c1ccc(-n2ccnc2)c([N+](=O)[O-])c1	4003	-1.5	-7.0	-24.0	7.1	6.3	-4.8
18	CN(CCc1ccccn1)Cc1ccc(Cl)c(Cl)c1	4055	-6.0	-0.9	-5.9	3.6	3.5	7.5
19	O=C(COc1ccccc1)N[C@@H]1c2ccccc2CC[C@H]1OCc1ccccc1	2882	5.2	/	-0.4	-0.4	0.6	2.9
20	O=C1CCCc2c1cc(C(=O)Nc1ccc(Br)cn1)c(=O)n2-c1ccccc1	2923	/	-2.4	-14.8	14.8	-3.2	/
21	CC1=NN(/C(=N/c2nnc(C)s2)Nc2ccc(C(C)(C)C)cc2)[C@H](c2ccc(C)cc2)S1	/	16.1	/	/	3.9	-4.1	10.1
22	CCc1ccc2oc(C(=O)N3CCN(c4ccc(OC)cc4)CC3)cc(=O)c2c1	3102	2.9	-2.1	8.1	-0.5	0.6	-3.8
23	C#CCOCCOCCOCCNc1nc(N2CCOCC2)nc(N2CCN(C(=O)C(Cc3cc4ccccc4[nH]3)n3cc(C(N)Cc4ccc(O)cc4)nn3)CC2)n1 (stereo not given)	/	3.1	/	/	-10.0	-1.4	5.8
24	COc1cc(NCCCC(C)N)c2ncccc2c1 (stereo not given)	2363	19.9	2.7	-8.9	-4.3	-15.5	8.5
25	COc1ccc(C)cc1NC(=O)C(OC(=O)CNC(=O)c1ccc(Br)cc1)c1ccccc1 (stereo not given)	2474	13.0	-20.6	2.2	8.2	2.9	4.0
26	COc1ccc(-c2nnc(NC(=O)CS(=O)(=O)c3ccc(F)cc3)o2)cc1	5300	8.0	-1.6	-12.2	9.5	5.7	5.4
27	CC1(C)CC(=O)c2cn3ncnc3nc2C1	10027	7.4	-10.3	/	-2.7	2.3	10.4
28	CCOC(=O)c1oc2cc(O)ccc2c(=O)c1-c1ccccc1OC	2952	11.9	-8.1	-24.1	2.5	7.1	10.1
29	CC(=O)NNC(=O)c1[nH]c2ccc(Br)cc2c1-c1ccccc1	3673	-2.0	-2.7	-14.3	-20.9	1.0	4.7
30	Cc1noc(C)c1COc1ccc(C(=O)Nc2ccccn2)cc1	6591	7.3	1.0	-25.6	2.2	0.6	4.4
31	O=C(Nn1cnnc1)c1cc(Br)ccc1Cl	4053	7.2	-6.6	-26.4	1.5	1.7	-6.4
32	O=C(CSc1nc(-c2ccc(F)cc2)nc2c1Cc1ccccc1O2)Nc1cccc(C(=O)O)c1	3270	15.0	4.3	-2.4	14.1	12.5	12.5
33	COc1ccc(C(=O)C2CCCN(Cc3ccc(NC(C)=O)cc3)C2)cc1OC (stereo not given)	3689	2.4	-3.5	-14.6	4.0	3.4	6.0
34	O=C(Nc1ccc(Cl)cc1F)c1cccc2ccccc12	3480	-6.1	9.0	-32.2	11.4	8.6	7.0
35	CCOc1ccc(S(=O)(=O)/N=C(/Nc2ccc(OC)cc2)c2ccccc2)cc1	5120	10.3	-0.4	-7.7	-1.2	2.2	10.2
36	C=CCc1cccc(/C=N/n2cnnc2)c1O	?	/	-0.6	-3.3	/	/	/
37	O=[N+]([O-])c1ccc2c(c1)N([O-])C1(CCCCC1)[N+]2=O	/	10.6	/	/	3.1	7.7	1.0
38	CC1CCN(Cc2nnnn2CCCC(=O)NCC(C)(C)N2CCOCC2)CC1	5015	6.7	1.8	-24.2	0.7	0.8	-2.2
39	O=C1Oc2ccccc2C(=O)/C1=C\N1CCN(c2ccccc2)CC1	4435	9.5	-4.3	-10.3	-71.8	9.0	-5.9
40	CC1CCN(C(NC(=O)c2ccco2)C(=O)c2ccccc2)CC1 (stereo not given)	3973	1.8	-3.1	-20.5	3.3	2.7	1.8
41	O=C(NC(=S)Nc1ccc(C(F)(F)F)cc1)c1csnn1	2598	20.4	1.5	-74.5	12.2	3.3	23.7
42	CCN1CCCC1CNC(=O)CSc1cc(=O)n(CC)c2ccccc12 (stereo not given)	10947	6.7	2.9	-10.9	4.0	1.7	9.9
43	Cn1nc(-c2ccc(Cl)cc2)c2cc(C(=O)N3CCN(c4ccccn4)CC3)sc21	5260	/	6.9	3.2	13.0	-0.5	/
44	COC(=O)/C=C/c1ccccc1S(=O)(=O)N(Cc1ccccc1)Cc1ccco1	3579	/	18.1	-21.6	/	/	/
45	COc1cc(-c2n[nH]c(=O)o2)cc(OC)c1OC	2130	/	-2.5	-12.1	1.2	0.8	/
46	CCOC(=O)C1(Cc2ccccc2C)CCCN(C(=O)c2sccc2C)C1 (stereo not given)	6293	-3.6	5.7	-14.1	-5.3	0.2	3.9
47	COc1cc(CNc2ncc(-c3ccc(Br)cc3)n2C)cc(OC)c1O	3961	6.8	7.8	-6.0	7.4	3.4	7.0
48	O=C(OCC(=O)N(CCc1ccccc1)Cc1ccccc1)c1ccccc1[N+](=O)[O-]	5730	1.6	7.2	-10.3	-0.1	10.2	-2.5
49	O=C(C1CCN(C2CCN(Cc3cccc4c3OCO4)CC2)CC1)N1CCOCC1	4544	14.3	-3.0	-38.2	2.6	0.9	5.2
50	CC(=O)COc1ccc2c3c(c(=O)oc2c1C)CCCCC3	10883	-1.2	-6.5	-90.4	-7.7	3.5	15.8

Next part; the last 4 above are carried over.
cpd	SMILES	Bead autofluor	Mtb hypoxia inh	BJeLR viability	PrP 5UTR inh	ugtP null kill	RN4220 kill	Mtb hypoxia inh growth
47	COc1cc(CNc2ncc(-c3ccc(Br)cc3)n2C)cc(OC)c1O	3961	6.8	7.8	-6.0	7.4	3.4	7.0
48	O=C(OCC(=O)N(CCc1ccccc1)Cc1ccccc1)c1ccccc1[N+](=O)[O-]	5730	1.6	7.2	-10.3	-0.1	10.2	-2.5
49	O=C(C1CCN(C2CCN(Cc3cccc4c3OCO4)CC2)CC1)N1CCOCC1	4544	14.3	-3.0	-38.2	2.6	0.9	5.2
50	CC(=O)COc1ccc2c3c(c(=O)oc2c1C)CCCCC3	10883	-1.2	-6.5	-90.4	-7.7	3.5	15.8
51	CCOc1ccc(N2C(=O)NC(=O)/C(=C\c3ccccc3[N+](=O)[O-])C2=O)cc1	5442	-2.4	3.0	-10.4	5.1	0.4	-0.7
52	CCCCC(NC(C)=O)c1nc2ccccc2n1CCCC (stereo not given)	3938	-90.5	-9.8	-15.5	3.2	3.8	-13.7
53	CS(=O)(=O)N1CCN(c2ccc([N+](=O)[O-])c3cccnc23)CC1	4493	9.4	7.2	-16.7	3.8	5.8	-2.2
54	Cc1ccc(CNS(=O)(=O)c2ccc3c(c2)CCN3C(=O)C2CCC2)cc1	5363	-5.9	-7.2	-14.4	-0.7	1.7	8.4
55	COC(=O)C(CO)NC(=O)C1CCCN1C(=O)CNC(=O)OCc1ccccc1 (stereo not given)	4395	-1.6	2.9	6.5	1.4	1.7	-4.9
56	CCc1ccc(NC(=S)NC2CC3CCCC(C2)N3Cc2ccccc2)cc1 (stereo not given)	3866	13.7	-4.5	-18.3	-3.1	7.6	1.0
57	O=C(NN=Cc1cc2c(cc1Cl)OCO2)c1ccc(Br)s1	/	-3.5	/	/	-4.1	4.8	2.4
58	CN(Cc1ccccc1)c1ncnc2[nH]ncc12	3612	9.5	/	-7.9	-2.8	-0.5	4.7
59	CCCOc1ccc(C(=O)O/N=C(\CC)c2ccc(C)cc2)cc1	1977	/	2.6	-3.4	/	/	/
60	CCN(CC(=O)NCc1ccc(F)cc1)C(=O)COc1ccc2ccccc2c1	9086	17.6	4.7	-8.2	13.1	11.0	8.3
61	CC(OC(=O)CC1CCCCC1)C(=O)Nc1ccc(S(N)(=O)=O)cc1 (stereo not given)	7455	7.9	-0.8	-8.2	5.4	3.0	4.9
62	O=C(Nc1ccc(Cl)cc1C(=O)Nc1ccncc1)c1ccco1	15933	-0.2	-4.2	0.4	7.5	3.9	-6.7
63	Cc1c(OCC(=O)NCCN2CCOCC2)ccc2c1oc(=O)c1ccccc12	/	9.9	-2.6	-24.4	-3.1	1.1	-1.3
64	CON=C(c1nonc1N)N1CCN(c2ccc([N+](=O)[O-])cc2)CC1	/	14.8	/	/	2.9	-0.6	12.7
65	COc1cccc(NC(=O)c2nnn(CC(=O)Nc3cc(C)cc(C)c3)c2N)c1	4118	2.4	7.3	10.7	-0.7	6.3	-3.2
66	OC(COc1ccc2ccccc2c1)Cn1ccnc1 (stereo not given)	10220	10.0	1.6	-13.8	-4.5	5.9	3.8
67	COCCn1ccc(O)c(Cc2ccc(Cl)cc2)c1=O	2728	/	14.4	-1.4	-0.2	2.3	/
68	CC(=O)OC1C(OC(C)=O)N(C(C)=O)C(=O)N1C(C)=O (stereo not given)	2963	13.4	5.5	-10.7	-4.8	-13.2	5.7
69	CCN(CC)CCN(CC(=O)N(C1CCCCC1)C1CCCCC1)C(=O)c1ccco1	2574	3.0	12.8	-18.2	-0.2	1.8	10.1
70	N#Cc1ccccc1OCC(=O)N(C1CCCCC1)C1CCS(=O)(=O)C1 (stereo not given)	?	-0.5	3.4	-14.0	-7.5	-1.4	5.9
71	CC(=NN=Cc1ccc(N(C)C)cc1)c1ccccc1	/	15.8	/	/	2.9	-0.2	6.2
72	CC(Sc1nc2c([nH]c3ccccc32)c(=O)n1C)c1ccccc1 (stereo not given)	5076	8.9	10.8	-15.5	8.8	5.4	4.3
73	CCOc1ccc(NC(=O)Cn2cncc2-c2ccc([N+](=O)[O-])cc2)cc1	10629	-4.7	3.3	-24.8	3.3	-1.5	-3.5
74	Nc1nc2ccc(-c3nc4ccccc4o3)cc2s1	2612	3.5	-1.6	-73.4	-16.7	3.3	-12.8
